Compound activity deposited in PubChem by National Center for Advancing Translational Sciences (NCATS).
Marburg entry inh: qHTS for inhibitors of binding or entry into cells for Marburg Virus; Marburg virus pseudotyped entry inhibition, cell reporter; control for the full effect not named in the record; about a third of the inactives were read at about 46 µM; 300,000 compounds, 1.8% hits; Potency, µM (highest dose often 37.8 µM), without a hit: at the top dose activity change, negative = inhibition, hits mostly inhibitors; AID 540276, 2011; active = well fitted inhibition curve with a large enough effect; inconclusive = small, poorly fitted or top-dose-only effect, or effect the other way; inactive = flat fitted curve, though single readings scatter; tested in HEK293 cells; about a fifth of its hits are not listed in these tables; note: % is set by controls: 0 for no effect and ±100 for the full control effect; luciferase read-out
SARS PLP yeast: qHTS of Yeast-based Assay for SARS-CoV PLP | AID 485353, 2010 | Potency, µM (highest dose often 32.9 µM), inactives show at the highest dose activity, positive = growth rescue | S. cerevisiae expressing SARS-CoV PLpro, growth rescue; control for the full effect not named in the record | 330,000 compounds, 0.19% hits; note: 0% is about no effect; nearly all actives have a fitted effect of over 55% in size; growth read by luminescence after 48 h
Cruzain inh Det: qHTS Assay for Promiscuous and Specific Inhibitors of Cruzain (with detergent); Cruzipain (Trypanosoma cruzi), P25779; purified cruzain, Z-FR-AMC fluorescence, 0.01% Triton; Potency, µM, for the others: max response, negative = inhibition, most hits filed as inhibitors; 200,000 compounds, 0.43% hits; active = well fitted curve in the direction sought with a large enough effect; inconclusive = small, poorly fitted or top-dose-only effect, or another doubt; inactive = no such curve, though single readings can be large; an effect the other way counts as inactive or inconclusive;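 note: plate controls were neutral wells for no effect and buffer without enzyme for full effect; nearly all actives have a fitted effect of over 40% in size; top concentration of the series not given in the record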
Target sequence (P25779 123-467 limits assumed): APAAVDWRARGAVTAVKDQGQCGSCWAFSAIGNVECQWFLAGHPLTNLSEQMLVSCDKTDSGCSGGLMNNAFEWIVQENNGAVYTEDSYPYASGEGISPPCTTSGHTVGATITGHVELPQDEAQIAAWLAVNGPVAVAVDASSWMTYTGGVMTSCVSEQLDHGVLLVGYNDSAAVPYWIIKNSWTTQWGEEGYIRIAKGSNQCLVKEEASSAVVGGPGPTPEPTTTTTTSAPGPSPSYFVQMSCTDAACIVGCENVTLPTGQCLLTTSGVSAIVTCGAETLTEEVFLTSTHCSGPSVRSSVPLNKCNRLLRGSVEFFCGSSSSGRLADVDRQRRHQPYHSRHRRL
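15 min RT preincubation of 1.5 nM cruzain with compound, then 2 uM Z-FR-AMC added; kinetic AMC fluorescence, 60 s delta. Triton X-100 0.01%, pH 5.5.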
NS1 inh: qHTS Assay for Inhibitors of Influenza NS1 Protein Function. S. cerevisiae slowed by influenza A NS1, growth recovery by OD600. Potency, µM (doses to about 46.1 µM), inactives show top-dose activity, positive = more growth. 270,000 compounds, 0.4% hits; note: actives are rising curves; nearly all actives have a fitted effect of over 50% in size
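A cell-based growth assay was used: compounds that relieve NS1-induced slow growth of budding yeast raise OD600. Assay medium was yeast nitrogen base with ammonium sulphate and -URA supplement, pH 6.0, with 2% galactose.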
Cruzain noTriton: qHTS Assay for Promiscuous and Specific Inhibitors of Cruzain (without detergent) | AID 1476, 2009 | 200,000 compounds, 2.3% hits | purified cruzain, Z-FR-AMC fluorescence, no detergent | Cruzipain (Trypanosoma cruzi), P25779 | Potency, µM, inactives show max response, negative = inhibition, usual class: inhibitors; active = well fitted curve in the direction sought with a large enough effect; inconclusive = small, poorly fitted or top-dose-only effect, or another doubt; inactive = no such curve, though single readings can be large; an effect the other way counts as inactive or inconclusive;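 note: plate controls were enzyme without inhibitor for no effect and buffer without enzyme for full effect; nearly all actives have a fitted effect of over 40% in size; top concentration of the series not given in the record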
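Detergent-free condition (0.00005% Triton X-100) in acetate buffer pH 5.5 with DTT. 1.5 nM enzyme and compound were pre-mixed 15 min, then 2 uM Z-FR-AMC substrate added; reaction progress from fluorescence change between first and third reads (60 s).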
2A StopGo: High Throughput Screening for Foot and Mouth Disease Virus Antivirals; human cells with a luciferase reporter of 2A StopGo recoding; control for the full effect not named in the record; Potency, µM (highest dose often 57.9 µM), for inactives: top-dose signal change, negative = less light; 410,000 compounds, 1.2% hits; active = well fitted falling curve with a large enough effect; inconclusive = small, poorly fitted or top-dose-only effect; inactive = no such curve, though single readings can be large or run the other way; tested in HEK293T cells; note: % is set by controls: 0 for no effect and ±100 for the full control effect; nearly all actives have a fitted effect of over 45% in size; luciferase light after 4 h
LASV entry inh: qHTS for Inhibitors of binding or entry into cells for Lassa Virus | Lassa virus pseudotype entry inhibition, cell reporter; control for the full effect not named in the record | Potency, µM (top dose mostly 37.9 µM), for inactives: top-dose activity change, negative = inhibition, usual class: inhibitors | 300,000 compounds, 1.2% hits | AID 540256, 2011; active means well fitted inhibition curve with a large enough effect; inconclusive means small, poorly fitted or top-dose-only effect, or effect the other way; inactive means flat fitted curve, though single readings scatter; tested in HEK293 cells; note: % is set by controls: 0 for no effect and ±100 for the full control effect; nearly all actives have a fitted effect of over 50% in size; luciferase read-out
RE007 growth inh: qHTS Assay for Inhibitors of the HIV-1 protein Vpr. S. pombe RE007 Vpr strain, BacTiter-Glo ATP luminescence, 24 h; control for the full effect not named in the record. Potency, µM (titrated, usually from 92.2 µM), for inactives: at the highest dose activity change, negative = less growth. 360,000 compounds, 0.21% hits. AID 651644, 2012; active = well fitted falling curve with a large enough effect; inconclusive = small, poorly fitted or top-dose-only effect; inactive = no such curve, though single readings can be large or run the other way;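 note: % is set by controls: 0 for no effect and ±100 for the full control effect; nearly all actives have a fitted effect of over 50% in size; the assay follows cell death caused by Vpr and the record does not say whether a fall means rescue or toxicity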
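Fission yeast RE007 carrying one integrated HIV-1 vpr copy, seeded at OD 0.01 in PMG+AL medium with 23 nL pinned compound. Grown 24 h at 30 degrees; viability read by BacTiter-Glo luminescence after 5 min.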
* = called active by the depositor; ? = inconclusive; · = not tested or not shown; & = joins results of further samples; [ ] = another dose, or the depositor's remark. Unless noted, calls come from the whole dose curve; as a rule, active means well fitted rising curve with a large enough effect; inconclusive means small, poorly fitted or top-dose-only effect; inactive means no such curve, though single readings can be large or run the other way. Potency is the fitted concentration of half-maximal effect.

SMILES | Marburg entry inh | SARS PLP yeast | Cruzain inh Det | NS1 inh | Cruzain noTriton | 2A StopGo | LASV entry inh | RE007 growth inh
O=C(NCCN1CCCCC1)Nc1cccc(C(F)(F)F)c1 | ? | -3% | · | -25% | · | 6% | 0% | -9%
O=S1(=O)CC(NCc2ccccc2)C(Nc2ccccc2)C1 (stereo not given) | 4% | 4% | -0.4% | 3% | 4% | · | 1% | 1%
Cc1ccc(N(CC(=O)NCc2ccccn2)S(=O)(=O)c2ccccc2)cc1C | -3%[46.1 µM] | -8% | · | 8% | · | -18% | ? | 6%
Cc1ccc(C(=O)NCC(=O)OCN2C(=O)c3ccccc3C2=O)cc1C | 4% | -7% | · | · | · | -5% | 10% | -9%
N#Cc1c2c(c(-c3ccccc3Cl)[nH]c1=S)CCCC2 | 12%[46.1 µM] | 0% | · | 17% | · | -10% | 4% | 15%
CCOC(=O)c1ccc(NC(=S)N2CCN(CCN=CC3=C(O)CC(C)(C)CC3=O)CC2)cc1 | 13%[46.1 µM] | 2% | · | 1% | · | -11% | 0% | 37%
CN(C(=O)c1ccc2c(Cl)c3c(nc2c1)CCC3)c1ccccc1F | ? | · | -11% | · | ? | 30%[activator] | 1%[46.1 µM] | ·
Cc1nc(Cl)cc(N/N=C/c2ccccc2)n1 | · | -3% | · | -26% | · | 27% | · | -5%
FC(F)Oc1ccc(-n2cc(-c3ccccc3)[n+]3c2CCCCC3)cc1 | ? | -1% | · | 0% | · | ? | ? | -2%
CN(C)C1(CNC(=S)Nc2ccccc2C(F)(F)F)CCCCC1 | -24%[46.1 µM] | -8% | · | · | · | 3% | 12% | -28%
CCOC(=O)c1ccc(NC(=O)Nc2ccc3snnc3c2)cc1 | 16%[46.1 µM] | · | -1.1% | · | -2% | -4% | 10%[46.1 µM] | ·
COCCNC(=O)Cn1c(=O)n(-c2ccc(C)c(C)c2)c(=O)c2c3c(sc21)CCCCC3 | -9%[46.1 µM] | · | -1.6% | · | -7% | -4% | -25%[46.1 µM] | ·
O=C(O)c1ccccc1NC1CCCCC1NS(=O)(=O)c1ccccc1 (stereo not given) | · | -1% | · | ? | · | 28% | · | 5%
Cc1ccc(NC(=O)Cn2nc(C)n3cccc3c2=O)c(C)c1 | ? | · | -3.0% | · | -3% | 5% | 12%[46.1 µM] | ·
CN(C)c1ccc(/C=N/NC(=O)c2ccccc2)cc1 | -14%[46.1 µM] | -2% | · | -8% | · | -12% | 10µM* | -4%
Cc1ccc2sc(N(Cc3cccnc3)C(=O)Cc3ccccc3)nc2c1C | · | · | -1.4% | · | -15% | 26% | -15%[46.1 µM] | ·
O=C(c1ccco1)N1CCN(c2ccc([N+](=O)[O-])c(N3CCOCC3)c2)CC1 | ? | 0% | · | 7% | · | -23% | 2% | 27%
CCN(CC)S(=O)(=O)c1ccc(F)c(C(=O)OC2CC(C)OC2=O)c1 (stereo not given) | 4%[46.1 µM] | -1% | · | 8% | · | -2% | ? | 7%
CC(/C=N/NC(=O)c1nnn(-c2nonc2N)c1CN1CCCCC1)=C\c1ccccc1 | · | -4% | · | 9% | · | -6% | · | 6%
Cc1ccc(NC(=O)c2ccc(Nc3c([N+](=O)[O-])cc([N+](=O)[O-])cc3[N+](=O)[O-])cc2)cc1 | 10µM* | 5% | -7.7% | 23% | ? | 13µM* | ? | 0%
CO/N=C/C(=N\Nc1cc(OC)cc(OC)c1)C(=O)c1ccccc1 | ? | 0% | · | · | · | 0% | ? | -2%
COc1ccccc1NC(=O)C1=C(C)Nc2nc(SCc3ccccc3)nn2C1c1cccnc1 (stereo not given) | -18%[46.1 µM] | · | -0.5% | · | ? | -19% | ? | ·
COc1ccc(S(=O)(=O)NC2CC(C)(C)NC(C)(C)C2)c2ccccc12 | -17% | 0% | · | 17% | · | 19% | -25% | -19%
CCCc1nc(SCC(=O)c2ccc3c(c2)NC(=O)CO3)[nH]c(=O)c1CC | 1%[46.1 µM] | · | · | · | · | -6% | -5% | 3%
CCC(Sc1nc(N)cc(=O)[nH]1)C(=O)Nc1cc(C)on1 (stereo not given) | 5%[46.1 µM] | 5% | · | 2% | · | 2% | -13% | 5%
COC(=O)c1ccc(Cn2nc([N+](=O)[O-])c(Br)c2C)cc1 | ? | 0% | · | -3% | · | -7% | -2% | 8%
Cc1ccc(CNc2nc3ccccc3n2C)o1 | -9% | 4% | · | 8% | · | 57%[activator] | -3% | -9%
Cc1cccc(NC(=O)CSc2nnc(-c3ccccc3)n2N)c1 | 0% | 2% | 5.5% | 18% | -3% | -7% | 18% | -12%
CC(=O)c1ccc(S(=O)(=O)Oc2ccc(-c3ccc(C(=O)O)cc3)cc2)cc1 | -8%[46.1 µM] | 0% | · | 10% | · | -8% | 12%[46.1 µM] | 15%
COc1ccccc1S(=O)(=O)N1CCC(C(=O)O)(c2ccccc2)CC1 | 1%[46.1 µM] | 1% | · | 10% | · | 5% | 8% | 0%
COC(=O)CCN(C(C)=O)c1ccc(N)cc1 | -3%[46.1 µM] | -1% | -0.1% | -12% | -5% | -15% | -20% | 10%
COCCOC(=O)C1=C(C)NC(=O)NC1c1ccc(-c2ccc(F)cc2)o1 (stereo not given) | -27%[46.1 µM] | 2% | · | · | · | -3% | -29% | -5%
COc1cccc(N2CCN(c3ncnc4onc(-c5ccc(F)cc5)c34)CC2)c1 | · | · | -1.2% | · | 10% | -18% | -6%[46.1 µM] | ·
COCCNC(=O)c1ccc2c(c1)C(=O)c1ccccc1-2 | · | -2% | · | -34% | · | 19% | · | -8%
CCN1CCN(C(=O)CN(Cc2ccccc2)S(C)(=O)=O)CC1 | 13%[46.1 µM] | 5% | 6.6% | -1% | -6% | -16% | 1% | -1%
COc1ccc(NC(=O)C(CC(C)C)NC(=O)C2CCC(C)CC2)cc1 (stereo not given) | -3%[46.1 µM] | 2% | · | -2% | · | 39%[activator] | · | -25%
CCOc1ccc(N(C(C)C(=O)NCCSc2ccc(C)cc2)S(C)(=O)=O)cc1 (stereo not given) | ? | · | -8.4% | · | 2% | 0% | ? | ·
CCC(C(=O)O)N1C(=O)C2CCCCC2C1=O (stereo not given) | 4%[46.1 µM] | 1% | · | -4% | · | -12% | 19%[46.1 µM] | 6%
O=C(c1ccc(Cl)s1)N1CCN(S(=O)(=O)c2ccc(Cl)cc2)CC1 | 4%[46.1 µM] | 4% | · | · | · | ? | -28%[46.1 µM] | 3%
COc1ccc(/C=C/c2nc3ccccc3n2C)cc1 | ? | -22% | · | · | · | 1.8µM* | 0.11µM* | 32µM*
COc1ccc(-c2nc(SCC(=O)NC3CCCC3)c(-c3ccc(OC)cc3)[nH]2)cc1 | ? | 3% | -7.1%&-4.0% | -10% | ? | 6%&5% | ? | 7%
CCOC(=O)N1CCc2c(sc3c2c(=O)n(Cc2ccccc2)c(=O)n3Cc2c(F)cccc2Cl)C1 | 11%[46.1 µM] | · | -2.3% | · | ? | -16% | 1%[46.1 µM] | ·
CCOC(=O)CC(NC(=O)c1cccs1)c1ccc(C)cc1 (stereo not given) | -10% | 0% | · | 3% | · | -8% | 17% | 3%
O=C(Nc1nc2ccc(F)cc2s1)C1=NN(c2ccccc2)C(=O)CC1 | 14% | 10% | -13% | 17% | -13% | 0% | 13% | -9%
COc1ccccc1NS(=O)(=O)c1cccc(C(=O)NNC(=O)c2ccc(Cl)nc2)c1 | 1%[46.1 µM] | 2% | · | · | · | -16% | -26%[46.1 µM] | -7%
CCN1CCN(Cc2c(O)ccc3c(=O)c(-c4ccc(OC)c(OC)c4)c(C(F)(F)F)oc23)CC1 | ? | 1% | -9.6% | 6% | 0% | 0% | 5% | 25%
O=c1[nH]cc(N(CCO)CCO)c(=O)[nH]1 | 23%[46.1 µM] | -6% | · | -1% | · | -9% | 6% | -5%
CC(Cl)C(=O)Nc1ncc(C(F)(F)F)cc1Cl (stereo not given) | 8% | 11% | 5.6% | 12% | 10% | 15% | 1% | 1%
CCOc1ccc(NC(=O)Cn2cc(S(=O)(=O)NC)c(S(=O)(=O)NC)c2)cc1 | · | · | -2.3% | · | 16% | 23% | 0%[46.1 µM] | ·
CCOC(=O)c1cc2c(=O)n3ccccc3nc2n(CC2CCCO2)c1=NC(=O)c1ccccc1C (stereo not given) | 4%[46.1 µM] | · | -2.6% | · | -6% | 79%[activator] | 18%[46.1 µM] | ·
COc1cccc(NC(=O)CSc2nnc(-c3cccs3)n2C)c1 | 3% | 1% | -1.7% | 13% | -20% | ? | -19% | -1%
O=C(COc1cc2oc(=O)c3c(c2cc1Cl)CCC3)Nc1ccc(CN2CCOCC2)cc1 | 24%[46.1 µM] | 3% | · | -5% | · | 0% | ? | -20%
CC(C)CCn1c(=O)c2sccc2n2c(CCCC(=O)Nc3ccc(C(C)C)cc3)nnc12 | · | · | -0.5% | · | -12% | -16% | 2%[46.1 µM] | ·
Cc1ccc(CC(=O)Nc2ccc(S(=O)(=O)N3CCOCC3)cc2)cc1 | -26%[46.1 µM] | -3% | · | ? | · | -3% | -18%[46.1 µM] | 8%
Oc1c(C(c2cccs2)N2CCOCC2)sc2ncnn12 (stereo not given) | · | -7% | 2.0% | -3% | -3% | -24% | · | 8%
C[C@]12CCC3C(CC[C@H]4C[C@@H](O)CC[C@]34C)C1CC[C@@H]2O (stereo not given in full) | -2%&-2% | 3% | · | · | · | 3% | 0% | 12%
CC(=O)NC/C(C)=N\Nc1ccc([N+](=O)[O-])cc1 | ? | -15% | · | · | · | -13% | -9%[46.1 µM] | -3%
CCC(C(=O)NCCc1ccc(S(N)(=O)=O)cc1)c1ccccc1 (stereo not given) | 6%[46.1 µM] | · | · | · | · | -2% | 16% | -3%
